# Screens (PubChem BioAssay)
# AID504770: E. coli YBA685 growth inhibition, screen for V. cholerae RctB inhibitors. E. coli YBA685 rctB-dependent plasmid, OD600 growth, 3 h; stronger effect = lower value. z-score (no concentration beside the values). hit rate 0.27% among 130,000. AID 504770;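 active = z-score under -2 on both plates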;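 note: wells of about 30 µL received 100 nL stock; score is relative to mean and SD of the test wells; the first replicate is given; strong numbers were not always called active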
# CapD inh: CapD enzyme inhibition; purified CapD enzyme, fluorescence intensity read-out; stronger effect = lower value; some hits fall short of the stated cut; z-score (test concentration not listed); hit rate 0.23% among 140,000;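 active = z-score under -4 in either of two replicates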;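 note: stock transfer was 100 nL into about 40 µL; score is relative to mean and spread of the plate; one replicate is shown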
# Numbers without * were called inactive; i = inactive; x = not tested or not shown; & = joins results of further samples. This is a random part of the collection (roughly 0.37% active in at least one column).
SMILES,AID504770,CapD inh
CCc1ccc(N(C2C=CS(=O)(=O)C2)S(=O)(=O)c2ccccc2)cc1 (stereo not drawn),-0.7,0.23
COc1cccc(-c2nc(C=Nc3ccc(C(=O)N(C)c4ccccc4)cc3)c(O)o2)c1,x,-2.9
COc1ccc(-n2c(=O)c3ccccc3n(Cc3ccccc3C#N)c2=O)c(OC)c1,0.2,-0.25
Cc1ccc(Cn2ccc(=O)c(OCc3c(Cl)cccc3Cl)c2C)cc1,x,-0.32
Cc1ccc(-c2nc(C(=O)NCCN3CCc4ccccc4C3)c3n2CCCCC3)cc1,-0.8,0.01
CSc1nc2ccc(NC(=O)c3ccc4ncsc4c3)cc2s1,-0.7,x
CCOC(=O)N1CC(=O)NC2C=CC(Br)=CC2=C1c1ccccc1Cl (stereo not drawn),x,0.66
CCOc1ccc(N2CC(C#N)=C3c4cc(OC)c(OC)cc4CCN3C2)cc1,0.2,x
CC(=O)Nc1ccc2sc(C)nc2c1,-1.2,x
O=C(NCCc1nc2ccccc2[nH]1)c1[nH]nc2c1CCc1ccccc1-2,0.35,0.9
NOCc1cccc(C(F)(F)F)c1,-1.2,0.34
COc1cccc(OCCCSC(C)C)c1,0.1,0.19
CCc1ccc2c(C)cc(=O)oc2c1,0.25,0.76
CN(C)c1ccc(CN(CC2CCCO2)S(=O)(=O)c2ccccc2C#N)cc1 (stereo not drawn),0.7,x
O=C(CO/N=C/c1ccco1)N1CCN(S(=O)(=O)c2ccc3ccccc3c2)CC1,-0.05,x
O=C(c1ccccc1Br)N1CCN(c2ccccc2)CC1,0.7,-0.55
O=c1oc2ccccc2c(N2CCCCC2)c1CN1CCCCC1,-1.3,-0.17
COc1cccc(OC)c1CN(C)C(=O)c1cnc(Oc2ccccc2)cc1C(F)(F)F,0.15,0.7
CSc1nn(C)c2cnn(C)c(=O)c12,-0.8,32
COc1ccc(CCNC(=S)NCCc2ccc(OC)c(OC)c2)cc1OC,x,-0.82
CCCOCC1CC2(CC(C)(c3csc(N)n3)OC2=O)C(=O)O1 (stereo not drawn),x,-0.06
c1ccc2c(c1)ncn2-c1ncnc2sc3c(c12)CCCC3,0.15,x
O=C1CCCc2c1cc(-c1ccccc1)n2-c1cccnc1,-0.7,-0.34
CCc1nn2c(=O)cc(CN3c4ccccc4CC3C)nc2s1 (stereo not drawn),-0.2,x
Cn1c2ccc(N=Cc3ccccc3O)cc2c2nc3ccccc3nc21,1.5,4.6
Cc1cc(C)c(-c2csc(N)n2)c(C)c1,-0.55,0.29
COc1ccc(CCN(C)C(C)C(=O)NC2CCCC2)cc1OC (stereo not drawn),0.25,x
CCOC(=O)c1[nH]c(C)c(C(=O)NCCc2ccc(OC)c(OC)c2)c1CC,-0.65,-0.015
O=C(CSc1nc2ccccc2c(=O)n1CCCN1CCN(c2cccc(Cl)c2)CC1)NCC1CCCO1 (stereo not drawn),x,0.43
CCCCc1cc(=O)oc2cc(OCC(N)=O)ccc12,-0.25,-0.42
O=C1OCCCN=C(c2ccccc2)c2ccccc21,x,0.065
CCN(CC)C(=O)NC(=O)c1c(C)cc(Cl)nc1Cl,-0.7,0.12
CCC(=O)N(C)c1nc(-c2ccc(Cl)s2)cs1,0.5,-0.065
Cc1nn(-c2ccccc2)nc1C(=O)Sc1ccccn1,1.6,-0.37
CC(=O)SC1CC2=CC(=O)CCC2(C)C2CCC3(C)C(CCC34CCC(=O)O4)C12 (stereo not drawn),x,-0.26
Cn1c(=O)c(=O)n(C)c2cc(S(=O)(=O)CCC(=O)N3CCCc4ccccc43)ccc21,0.4,0.18
CCCOc1cccc(C(=O)NCc2cccnc2)c1,-0.5,x
Cc1cc(=O)[nH]c2c1c(=O)[nH]n2C1CC(C)N(C)CC1C (stereo not drawn),1.1,x
O=C(NC(=O)c1ccc(F)cc1F)c1ccccc1O,1.3,-0.78
CCC(=O)Nc1ccc(C#N)cc1,-0.65,-0.35
CCc1nnc(NC(=O)Cn2nc(Cc3ccncc3)c3ccccc3c2=O)s1,1.5,0.49
CS(=O)(=O)c1[nH]nc(-c2ccccc2Cl)c1C#N,-0.3,0.17
CCN(CC)C(=S)Nc1ccc2nc3n(c(=O)c2c1)CCCCC3,0.45,0.39
CSc1nc2ccccc2c(=O)n1CC(=O)C(C)(C)C,-0.35,3.6
O=C1CSC(=NC(=O)C2CC2)N1,-0.7,0.31
O=C(O)CCC(=O)N1CCOc2ccccc21,-0.05,-1.7
COc1ccc(C2C3=C(CC(C)(C)CC3=O)Nc3ccc4ccccc4c32)cc1 (stereo not drawn),x,96
CC1CCN(Cn2nc(-c3ccccc3)oc2=S)CC1,-0.4,-0.18
Cc1ccc(S(=O)(=O)NC(=O)Oc2ccccc2N2CCOCC2)cc1,-1.1,0.77
CCOC(=O)C1CCN(C(=O)/C(=C/c2ccc(F)cc2)c2ccsc2)CC1,0.6,-0.71
O=C(O)c1ccccc1Nc1cccc(C(F)(F)F)c1,0.75,0.46&0.41
COc1cc(NC(=O)CNCC(C)C)cc(OC)c1OC,0.6,x
CN1CCN(S(=O)(=O)c2ccc(N3CCN(c4ccccc4Cl)CC3)nc2)CC1,1.8,x
COC(=O)COc1ccc(/C=C2\C(=O)NC(=O)N(c3cccc(Br)c3)C2=O)cc1OC,x,0.52
S=C(NCCc1ccccc1)NCC(c1cccnc1)N1CCOCC1 (stereo not drawn),0.15,0.59
O=C1c2ccccc2C(=O)N1CCc1c[nH]c2ccccc12,-0.2,x
O=C(CSc1nc2c(sc3ccccc32)c(=O)n1CCCN1CCOCC1)NC1CCCC1,0.3,1.9
O=C(c1ccc(Cl)cc1)N1CCc2c([nH]c3ccccc23)C1c1ccccc1 (stereo not drawn),x,0.52
CCN(CC)S(=O)(=O)c1cccc(C(=O)OCc2cc(=O)n3cc(C)ccc3n2)c1,-0.8,x
Cn1c(=O)cc2c3c(c(Nc4cccc(C(F)(F)F)c4)ccc31)C(=O)c1ccccc1-2,x,0.2
# Remaining list, next part.
SMILES,AID504770,CapD inh
CN1C(=O)N(C)C(=O)C(Cc2ccccn2)(Cc2ccccn2)C1=O,-3.4,x
COc1c(Cl)cc(Cl)cc1CNCC1CCCO1 (stereo not drawn),-0.6,x
O/N=C/c1c(O)ccc2ccccc12,-0.05,1.4
CC(C)(C)C(N)=NC#N,-0.25,x
COC(=O)c1ccc(C(=O)OC)c(NC(=S)N2CCCCC2C)c1 (stereo not drawn),0.2,-0.23
O=C(O)[C@@H]1CCCCN1C(=O)OCC1c2ccccc2-c2ccccc21,-0.5,0.53
O=C(CC(c1cccs1)N1Cc2ccccc2C1=O)NCCN1CCOCC1 (stereo not drawn),-2.2*,0.1
Cc1ccc(-c2csnn2)cc1,x,-0.84
CCOC(=O)c1[nH]c(C)c(C(=O)OCC)c1C,x,0.13
Cc1cc(N2C(=O)CSC23C(=O)Nc2ccccc23)ccc1Br (stereo not drawn),x,-0.15
O=C1c2nccnc2C(=O)N1C(c1ccccc1)c1ccccc1,x,-0.25
COc1ccc(OCCNC(=O)c2nccnc2C(=O)O)cc1,-1.1,-1.3
Cn1ccnc1SCC(=O)N1Cc2ccccc2CC1C(=O)O (stereo not drawn),-0.55,x
N=C1CCCN1CC(=O)c1ccc(Br)cc1,0.2,0.52
CN1O[C@@H]2C(=O)N(c3cccc(C(F)(F)F)c3)C(=O)[C@@H]2[C@H]1c1ccccc1,x,-0.27
N#Cc1ccc(COC(=O)CCC2CCCC2)cc1,-0.25,0.36
COc1ccc(/C=c2\sc3n(c2=O)C(c2c(OC)ccc4ccccc24)C(C(C)=O)=C(C)N=3)c(OC)c1 (stereo not drawn),x,0.12
O=C(c1c[nH]c2ccccc12)N1CCN(c2ccccc2)CC1,1.1,-0.67
Clc1ccc(OCCBr)c(Cl)c1,0.6,-0.13
CN(C)S(=O)(=O)c1cccc(C(=O)N=c2sc3ccccc3n2C)c1,2,x
CC(C)c1ccc(NC(=O)CN2N=C(c3ccc(Cl)cc3)CCC2=O)cc1,-0.2,-0.065
COc1ccc(-c2noc(NCC3CCCO3)n2)cc1 (stereo not drawn),0.15,-0.025
CC[C@@H]1/C=C/C=C/C[C@H](C)[C@@H](O)[C@](C)(O)C(=O)[C@H](C)[C@@H](O)[C@H](C)C(=O)[C@H](C)[C@@H](O)[C@H](C)/C=C/C(=O)O[C@H]2[C@@H](C)[C@@H](CC1)O[C@@]1(CC[C@@H](C)[C@@H](C[C@H](C)O)O1)[C@@H]2C,x,0.98
O=c1oc(-c2ccccc2)nc2sc3c(c12)CCCC3,x,-0.29
O=C(CSc1nnc2n1CCCCC2)Nc1cccc2ccccc12,1.1,x
Cc1ccc(S(=O)(=O)N2CCC(N)=N2)cc1,x,2
O=C(Nc1ccc(S(=O)(=O)N2CCCCC2c2cccnc2)cc1)c1ccc(Cl)cc1 (stereo not drawn),2,-0.54
O=C(Nc1ccccn1)Nc1cccs1,-0.75,0.035
O=[N+]([O-])c1ccc(Nc2nc(OCC(F)(F)F)nc(OCC(F)(F)F)n2)cc1,x,-0.95
Cc1nnc(SCC(=O)NCCc2ccco2)c2nn(-c3ccccc3)c(C)c12,0.15,-0.82
CCN(CC)S(=O)(=O)c1cccc2cc(C(=O)O)c(O)cc12,0.9,-1
CCOc1ccc(/C=C/C(=O)NCc2ccco2)cc1OC,-0.25,x
CN1C(=O)/C(=C/c2cn(CC(=O)N3CCOCC3)c3ccccc23)C(=O)NC1=S,-1.6,1.1
Cc1cc(/C=C2\C(=O)NC(=S)N(c3ccc(F)cc3)C2=O)c(C)n1-c1ccccc1,x,-0.46
COc1ccc(COC(=O)C2=C(C)NC(=O)NC2c2ccc(Cl)c(Cl)c2)cc1 (stereo not drawn),x,-0.38
Cc1cccc(NC2CC(=O)N(c3cccc(Cl)c3)C2=O)c1 (stereo not drawn),-0.15,x

# Part of the list above, tab-delimited.
compound	AID504770	CapD inh
c1ccc2c(c1)ncn2-c1ncnc2sc3c(c12)CCCC3	0.15	x
O=C1CCCc2c1cc(-c1ccccc1)n2-c1cccnc1	-0.7	-0.34
CCc1nn2c(=O)cc(CN3c4ccccc4CC3C)nc2s1 (stereo not drawn)	-0.2	x
Cn1c2ccc(N=Cc3ccccc3O)cc2c2nc3ccccc3nc21	1.5	4.6
Cc1cc(C)c(-c2csc(N)n2)c(C)c1	-0.55	0.29
COc1ccc(CCN(C)C(C)C(=O)NC2CCCC2)cc1OC (stereo not drawn)	0.25	x
CCOC(=O)c1[nH]c(C)c(C(=O)NCCc2ccc(OC)c(OC)c2)c1CC	-0.65	-0.015
O=C(CSc1nc2ccccc2c(=O)n1CCCN1CCN(c2cccc(Cl)c2)CC1)NCC1CCCO1 (stereo not drawn)	x	0.43
CCCCc1cc(=O)oc2cc(OCC(N)=O)ccc12	-0.25	-0.42
O=C1OCCCN=C(c2ccccc2)c2ccccc21	x	0.065
CCN(CC)C(=O)NC(=O)c1c(C)cc(Cl)nc1Cl	-0.7	0.12
CCC(=O)N(C)c1nc(-c2ccc(Cl)s2)cs1	0.5	-0.065
Cc1nn(-c2ccccc2)nc1C(=O)Sc1ccccn1	1.6	-0.37
CC(=O)SC1CC2=CC(=O)CCC2(C)C2CCC3(C)C(CCC34CCC(=O)O4)C12 (stereo not drawn)	x	-0.26
Cn1c(=O)c(=O)n(C)c2cc(S(=O)(=O)CCC(=O)N3CCCc4ccccc43)ccc21	0.4	0.18
CCCOc1cccc(C(=O)NCc2cccnc2)c1	-0.5	x

# (more compounds)
SMILES,AID504770,CapD inh
COc1ccc(/C=C2N=C(/C=C/c3cccc(Cl)c3Cl)OC\2=O)cc1OC(C)=O,x,-0.35
CC12CCC(=O)N1C(C(=O)OCC(=O)N1c3ccccc3NC(=O)C1(C)C)CS2 (stereo not drawn),-0.95,x
CCC1(C)CC(CCN)(c2ccc(F)cc2)CCO1 (stereo not drawn),-1.1,-0.21
CCC(C)c1ccc(NC(=O)CSc2nncn2N)cc1 (stereo not drawn),-0.25,x
COc1ccc(-c2cc(C(=O)N3CCC4(CC3)OCCO4)[nH]n2)cc1,-0.4,-0.63
O=C(Nc1ccc(-c2nc3ccccc3o2)cc1)c1ccc(S(=O)(=O)N2CCc3ccccc3C2)cc1,x,11
N#Cc1cccc2c1[nH]c1ccc(Cl)cc12,-0.5,3.1
CC(=O)OC(C(=O)Nc1nc2ccccc2s1)c1ccccc1 (stereo not drawn),-0.4,-0.92
CCOc1ccc2nc(NC(=O)COc3ccccc3)sc2c1,2,i
COc1ccc2cc(C(=O)NC(C)=O)c(=Nc3ccc(C(F)(F)F)cc3)oc2c1,x,0.65
NC(=O)C(C(=O)/C=C/c1ccc(F)cc1)=C1SCS1,0.35,x
COc1ccc(/C=C/C(=O)N2c3ccccc3Sc3ccccc32)c(OC)c1,0.7,0.2
O/N=C/c1cccn1-c1ccccc1F,-0.6,0.39
Cc1cc(/C=C2/SC(=O)N(C(C)C)C2=O)c(C)n1-c1ccncc1,1.1,-0.99
NOCc1ccccc1C(F)(F)F,-0.2,0.11
O=C(CCc1nnc2ccc(N3CCCCC3)nn12)N1CCCC1,-1,-0.93
O=C(NCc1cn2ccsc2n1)Nc1ccc(Cc2ccc(NC(=O)NCc3cn4ccsc4n3)cc2)cc1,-0.9,x
O=[N+]([O-])/C=C/c1c(F)cccc1Cl,x,0.67
N#Cc1cc2c(nc1SCCS(=O)(=O)Cc1ccccc1)CCCC2,x,-0.55
O=C(NN1C(=O)/C(=C2/C(=O)N(Cc3ccccc3)c3ccccc32)SC1=S)c1ccncc1,x,-0.24
CCOC(=O)c1c(CN(C)c2ccccc2)oc2cc(Br)c(O)c(CN(C)C)c12,x,-0.39
CC1=NN(C(=O)c2ccccc2)C(O)(c2ccc(Cl)cc2)C1 (stereo not drawn),-0.15,-0.18
O=C1CC2(CCN(C(=O)Cc3ccccc3)CC2)Oc2ccccc21,2.8,x
Cc1noc(C)c1CC(=O)N(Cc1ccccc1)c1nc2c(s1)CCCC2,1.1,x
O=C1NCCN1CCNS(=O)(=O)c1ccc(N2C(=O)CCC2=O)cc1,0.15,-1.1
